# Screening data: PubChem, Center for Chemical Genomics, University of Michigan
# CDC25B-CDK2 inh: human CDC25B-CDK2/CyclinA binding inhibition; P30305+P24941; HTRF CDC25B-CDK2/CyclinA binding, anti-His/anti-Flag; active compounds read high; z-score (concentration not given with the values); actives 0.72% (n = 94,000);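 note: score is relative to mean and SD of negative controls; strong numbers were not always called active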
# HIV TAR-Tat: HIV-1 TAR-Tat binding disruption. HIV-1 TAR RNA, Tat peptide displacement FRET; active compounds read high. z-score (test concentration not listed). actives 0.6% (n = 100,000). AID 1259389;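 note: score is relative to mean and SD of negative controls; some compounds called inactive have numbers as strong as hits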
# * hit, by the source's call; · = not tested or not shown.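 Rule for the calls: active = z-score from 3 up in half or more of its runs; inactive = the rest.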
SMILES,CDC25B-CDK2 inh,HIV TAR-Tat
CCOC(=O)C1=C(C)NC2=C(C(=O)C(C(=O)OC)C(C)C2)C1c1ccc(OC(C)=O)cc1 (stereo unspecified),0.3,-0.53
CCS(CC)=NS(=O)(=O)c1ccc([N+](=O)[O-])cc1,-0.93,·
COCc1cc(C)nc(SCC(=O)c2ccc(C)cc2C)c1C#N,5,·
Cc1c(S(=O)(=O)N2CCOCC2)ccc(Cl)c1F,-1.4,·
c1ccc(NCCNc2ccccc2)cc1,-0.7,·
Cc1ccc(-c2nnc3c4ccccc4c(C)nn23)cc1S(=O)(=O)NC(C)(C)CO,-0.7,0.94
O=C(Nc1ccc(-c2nc3ccccc3o2)cc1)C12CC3CC(CC(C3)C1)C2,-2.8,·
CC(=O)N1CCc2cc(S(=O)(=O)C(C)CC(=O)N3CCc4ccccc43)ccc21 (stereo unspecified),·,0.56
O=C1CCCN1c1ccc(S(=O)(=O)Nc2cccc(F)c2)cc1,·,0.99
c1ccc(CN2CCC(N3CCN(C4CCCCC4)CC3)CC2)cc1,0.2,2.7
COc1ccc2oc(=O)c(-c3nnc(NCc4ccccc4)s3)cc2c1,-2.7,·
CCOC(=O)c1c(C)oc2ncnc(NCCN3CCOCC3)c12,·,-1.4
COc1cc(C2CC(=O)NC3=C2C(=O)CC(c2ccc(OC)c(OC)c2)C3)ccc1O (stereo unspecified),-0.78,1.7
Cc1ccc(-n2ccc(=O)c(C(=O)Nc3sc4c(c3C(=O)NCC3CCCO3)CCCC4)n2)cc1 (stereo unspecified),-1.6,0.78
O=C(CSc1nc2ccccc2o1)Nc1ccc(Br)cc1,0.73,·

# Copied from the results shown (four entries):
SMILES,CDC25B-CDK2 inh,HIV TAR-Tat
c1ccc(CN2CCC(N3CCN(C4CCCCC4)CC3)CC2)cc1,0.2,2.7
COc1ccc2oc(=O)c(-c3nnc(NCc4ccccc4)s3)cc2c1,-2.7,·
CCOC(=O)c1c(C)oc2ncnc(NCCN3CCOCC3)c12,·,-1.4
COc1cc(C2CC(=O)NC3=C2C(=O)CC(c2ccc(OC)c(OC)c2)C3)ccc1O (stereo unspecified),-0.78,1.7

# In a second layout: entries from further up
SMILES | CDC25B-CDK2 inh | HIV TAR-Tat
CC(=O)N1CCc2cc(S(=O)(=O)C(C)CC(=O)N3CCc4ccccc43)ccc21 (stereo unspecified) | · | 0.56
O=C1CCCN1c1ccc(S(=O)(=O)Nc2cccc(F)c2)cc1 | · | 0.99

# Going on with the list.
SMILES,CDC25B-CDK2 inh,HIV TAR-Tat
Cc1ccc(-c2nnc(-c3ccccc3)o2)cc1Br,0.07,·
Cc1nc2sccn2c(=O)c1S(=O)(=O)N1CCN(c2ccccn2)CC1,-1.8,2
Cc1c(C(=O)NCCSCc2ccc(F)cc2)cnn1-c1ccc(Cl)cc1,0.05,·
O=c1c2cc3c(cc2nc2sc(Nc4ccc(F)cc4F)nn12)OCO3,1.2,0.22
COc1ccc(-c2coc3cc(O)ccc3c2=O)c(O)c1O,·,23*
CC(C)(C)NC(=O)c1cccs1,·,2.3
O=C1C(=O)N(Cc2ccc(Cc3ccc(CN4C(=O)C(=O)c5ccccc54)cc3)cc2)c2ccccc21,0.68,1.7
CC(C)N[C@H]1CS(=O)(=O)C[C@@H]1S(=O)(=O)c1ccc(Cl)cc1,-1.2,-0.64
CCCN1C=C(OC(=O)C(C)(C)C)c2ccccc2S1(=O)=O,-1.9,0.78
CCCCCCCn1c(CN2CCCC(C)C2)nc2c1c(=O)n(C)c(=O)n2C (stereo unspecified),-0.05,-0.76
COc1ccc(Cl)cc1NC1c2ccccc2C(=O)N1c1ccc(Cl)cn1 (stereo unspecified),-1.1,2.8
CC1=C(C(=O)Nc2cc(C(=O)NCCC(C)C)ccc2C)SCCO1,·,1.1
COc1ccc(/C(O)=C2\C(=O)C(=O)N(c3nnc(C)s3)C2c2ccc(F)cc2)cc1 (stereo unspecified),-2.3,-0.54
Cc1ccc(-c2nc3cccc(C)n3c2Nc2ccccc2)o1,0.06,·
Cc1ccc(C)c2[nH]c(=O)c(CCNC(=O)c3ccc4c(c3)OCO4)cc12,-1.2,·

# Whole records as entered above.
# Cc1nc2sccn2c(=O)c1S(=O)(=O)N1CCN(c2ccccn2)CC1 in the list: CDC25B-CDK2 inh: -1.8; HIV TAR-Tat: 2
# COc1ccc(-c2coc3cc(O)ccc3c2=O)c(O)c1O in the list: CDC25B-CDK2 inh: ·; HIV TAR-Tat: 23*

# (further entries)
SMILES,CDC25B-CDK2 inh,HIV TAR-Tat
O=C(O)CCc1nnc2cnc3ccccc3n12,-0.45,0.97
COC(=O)c1ccc(-c2nc(=S)c3c([nH]2)Oc2ccc(F)cc2C3)cc1,-0.02,-0.42
CN1CCN(CCNC(=O)C2CCN(S(=O)(=O)c3ccc4c(ccn4C)c3)CC2)CC1,·,0.94
Nc1nc(-c2ccc3c(c2)OCO3)cc(C(F)(F)F)n1,-2.5,·
Cn1ncc2c(NCc3ccccn3)ncnc21,·,1.2
C=CCNC(=O)C(=O)NCC(c1ccco1)S(=O)(=O)c1ccc(F)cc1 (stereo unspecified),·,1.7
O=C(C1CCN(c2nccnc2Oc2ccccc2)CC1)N1CCCC1,·,2.5
CNC(=O)C1CCN(c2nc3cccnc3s2)CC1,·,2.8
O=C(NCCC1=CCCCC1)C1CCN(c2nc3ccccc3n3cccc23)CC1,·,-0.36
C=CCc1ccc(O)c(OC)c1,·,2.8
CC1CCc2c(sc3nnn(CC(=O)N4CCCCC4)c(=O)c23)C1 (stereo unspecified),-0.57,-0.19
CCCCSc1nc2c(c(=O)[nH]1)C(c1ccccc1)C(C(=O)OCC)=C(C)N2 (stereo unspecified),-1.7,1.1
CC1CC(C)CN(CCCNC(=O)C2CCN(c3nnc(-n4cccc4)s3)CC2)C1 (stereo unspecified),-0.73,0.57
CC1(C)CC(=O)c2cnc3c(C(=O)N4CCN(c5ccccn5)CC4)cnn3c2C1,·,-1.4
COc1ccc(CCNc2ncnc3c2nc2n3CCCC2)cc1OC,·,1.4

# Quoted at random: four records from the list
SMILES,CDC25B-CDK2 inh,HIV TAR-Tat
COc1ccc(CCNc2ncnc3c2nc2n3CCCC2)cc1OC,·,1.4
C=CCc1ccc(O)c(OC)c1,·,2.8
O=C(O)CCc1nnc2cnc3ccccc3n12,-0.45,0.97
C=CCNC(=O)C(=O)NCC(c1ccco1)S(=O)(=O)c1ccc(F)cc1 (stereo unspecified),·,1.7

# Later entries
SMILES,CDC25B-CDK2 inh,HIV TAR-Tat
O=S(=O)(Cc1ccccc1)Nc1ncn(Cc2ccc(Cl)cc2)n1,-0.09,-0.42
COc1ccc(-n2nc3c(c2NC(=O)c2cc(Br)ccc2Cl)CS(=O)(=O)C3)cc1,·,0.89
COc1ccc(C2CC(c3ccc(F)cc3)Nc3nc(N)nn32)cc1OC (stereo unspecified),-0.85,1.9
Cc1cc(N2CCOCC2)nc(N2CCN(S(=O)(=O)c3ccc4nc(C)sc4c3)CC2)n1,·,1.1
O=c1cc(CSc2nc3ccccc3o2)[nH]c(=S)[nH]1,-2.1,·
Cc1ccc(C(=O)N2CCc3cc4cccc(C)c4nc32)cc1,-0.46,-1.7
Oc1ccc(-c2nc3nc[nH]n3c2Nc2ccccc2)cc1,0.76,0.03
O=C(O)CCC(=O)N1N=C(c2ccccc2)CC1c1cc2cc3c(cc2nc1Cl)OCO3 (stereo unspecified),-2,·
CC1=Nn2c(nnc2-c2ccc(Cl)cc2)SC1,-1.1,-1.1
Cc1ccc(Cl)cc1Nc1c(-c2ccc3c(c2)CCCC3)c(=O)c1=O,·,-1.3
CCN1CCN(c2c(S(=O)(=O)c3ccc(C)c(C)c3)cnc3ccccc23)CC1,-1.7,-0.17
Cc1ccnc(N2CCC(C(=O)N3CCN(C(=O)c4ccco4)CC3)CC2)n1,·,1.6
COc1cccc(C2c3c(oc4cc(C)c(C)cc4c3=O)C(=O)N2c2nccs2)c1 (stereo unspecified),0.57,0.08
CCS(=O)(=O)c1nc(S(=O)(=O)c2ccc(Cl)cc2)c(NCCCN2CCCC2=O)s1,0,-1.3
O=C(CSc1nccn1Cc1ccco1)Nc1ccc2c(c1)OCO2,·,1.1
Cc1ccc(C)n1-c1ccc(C2(O)CCSc3ccc(F)cc32)cc1 (stereo unspecified),-1,·
Cc1ccc(C)c(CNC(=O)c2cnc3sc(N4CCCC4)nn3c2=O)c1,-1.9,2.4
Cc1onc(-c2c(F)cccc2Cl)c1C(=O)O/N=C(\N)c1ccc([N+](=O)[O-])o1,-0.95,·
c1cn(CCCNc2ncnc3sc4c(c23)CCCCC4)cn1,-0.21,0.78
Cc1nc(-c2cccs2)c(CC(=O)NCC(C)C)s1,-2.4,-1.1
Nc1nc(-c2ccccc2)nn1C(=O)C(c1ccccc1)c1ccccc1,-1,0.7
C=C(C)C1CC=C(C)C(OC(=O)c2ccccc2C(=O)O)C1 (stereo unspecified),-1.2,3.3
CC(C)CCNC(=O)C1c2c(n(C)c3ccccc23)SCC(=O)N1CCC(C)C (stereo unspecified),·,1.3
COc1ccc(OC)c(C2OC(COc3ccc(Cl)cc3)=NN2C(C)=O)c1 (stereo unspecified),·,-0.15
CN(C)C(=O)COc1ccc(S(=O)(=O)c2ccc(OCC(=O)N(C)C)cc2)cc1,-1.2,-1.4
CC1=C(C(=O)OCCOc2ccccc2)C(c2cc3c(cc2Br)OCO3)CC(=O)N1 (stereo unspecified),-1.8,-0.41
CN1C(=O)C(C)(C)c2cc(S(=O)(=O)N3CCC(C(=O)NC4CCCc5ccccc54)CC3)ccc21 (stereo unspecified),·,1.9
O=C1CN(Cc2ccc(Cl)cc2)S(=O)(=O)c2ccccc2N1Cc1ccc(Cl)cc1,·,2.2
COc1nc2cc(C)ccc2cc1-c1noc(-c2cccs2)n1,-20,0.86
Nc1nnc(SCC(=O)N2CCc3ccccc3C2)s1,-0.91,1.2
Cc1cn2c(=O)c(S(=O)(=O)N3CCN(Cc4ccccc4)CC3)c(C)nc2s1,·,0.11
O=C(Nc1ccc(F)cc1F)c1c2c(nc3ccccc13)C(=O)N(C1CCCCC1)C2,·,-0.32
CCOC(=O)c1sc(NC(=O)c2onc(C)c2Cl)c(C(=O)OCC)c1C,-1.1,-0.39
CCN(CC)c1ccc(C2C(C(=O)OCCOC(C)C)=C(C)NC3=C2C(=O)CCC3)cc1 (stereo unspecified),-1.4,1.8
O=C(Cn1ccc2cc(S(=O)(=O)N3CCCC3)ccc21)NC1CCCC1,·,0.62
COc1ccc(S(=O)(=O)Nc2ccc(-c3ccc(OC)nn3)cc2)cc1,·,1.3
CC(C)Cn1c(=O)c2ccccc2n2c(-c3ccc(Br)cc3)nnc12,-0.32,1.4
COc1cc2nc(-c3cccs3)oc(=O)c2cc1OC,-2.6,·
CN(C)/C=C(\C#N)c1cccc(C(F)(F)F)c1,-0.27,·
CCOc1ccc(-c2nc(CNS(=O)(=O)N(C)C)c(C)o2)cc1,·,1.4
COc1cccc(Cc2nnc(-c3snnc3C)o2)c1,-2.5,·
CSc1ncc(C(=O)Nc2cc(C)cc(C)c2)c(C(F)(F)F)n1,·,0.87
c1cc(CNCc2ccc3c(c2)OCO3)ccn1,-0.83,0.47
Cc1cc(NC2=NS(=O)(=O)c3ccccc32)ccc1Br,-5.2,0.33
Cn1cnc2nc(SCC(=O)O)nc(N)c21,-1,-1.1
CCOc1cc(C2NC(=O)c3sc(=S)n(-c4ccccc4)c3N2)ccc1OC(C)=O (stereo unspecified),-2.2,0.92
Cc1cc(-c2ccc(S(=O)(=O)NC3CCCc4ccccc43)s2)on1 (stereo unspecified),·,-0.92
Cc1nc2ccccc2n1Cc1nnc2n1N=C(c1ccccc1)CS2,·,2.2
CCOC(=O)c1c(NC(=O)CCCn2nc(C)c([N+](=O)[O-])c2C)sc2c1CCC2,-0.93,-1.8
Nc1ncc(Br)cc1S(=O)(=O)NCc1cccnc1,·,1.6
Cn1nc(Oc2nc(NC(C)(C)C)nc(N3CCOCC3)n2)ccc1=O,0.92,·
O=C1C2N=NN(Cc3ccccc3F)C2C(=O)N1c1ccc(F)cc1 (stereo unspecified),-1.3,0.59
COc1cccc2c(=O)cc(-c3ccccc3)[nH]c12,-1.2,0.47
CS(=O)(=O)CS(=O)(=O)Oc1ccc(F)cc1F,-1.1,·
O=C(CSc1nccn1C1CCCC1)Nc1ccc(Cl)cc1,·,2.4
Cc1nc2c(=O)[nH]c3ccccc3c2o1,-0.29,·
CCC(C(=O)NC(C)CCc1ccccc1)n1c2ccccc2c2nc(=O)cc(C)n21 (stereo unspecified),-0.34,-0.36
O=C(O)CCC(=O)N1CCN(c2nc(-c3ccccc3)c3ccccc3n2)CC1,-3.5,1.1
O=C(CCc1nnc2ccc(N3CCCC3)nn12)N1CCC(Cc2ccccc2)CC1,·,0.51
Cn1c(=O)c2ccccc2n2c(CCC(=O)NCc3ccco3)nnc12,0.2,1.2
# More entries
SMILES,CDC25B-CDK2 inh,HIV TAR-Tat
O=C(Nc1ccc(Cl)cc1)c1nnc(SCC(=O)N2CCC(N3CCCCC3)CC2)s1,·,-1.5
O=C(NCCCN1CCCC1=O)c1cnn2c3c(cnc12)CCCC3,·,-0.39
CCOC(=O)C1CCCN(C(=O)Cn2ncn3nc(-c4cccs4)cc3c2=O)C1 (stereo unspecified),-1.6,0.74
CCOC(=O)C1CCN(C(=O)CCc2nnc3ccc(N4CCCCC4)nn23)CC1,·,-1
COc1cccc(-n2c(=S)sc3c(=O)n4[nH]c(=O)c5ccccc5c4nc32)c1,12,20
Clc1ccccc1C1CC(c2cccs2)n2ncnc2N1 (stereo unspecified),1.1,·
CC1=C(C(=O)Nn2cnc3cccc(F)c3c2=N)Sc2ccccc2N1,-4,·
O=C(c1ccc(N2C(=O)CCS2(=O)=O)cc1Cl)N1CCN(c2ncccn2)CC1,0.01,0.07
COc1ccccc1-c1nc(C(N)=O)c2[nH]c(=O)n(CC3CCCO3)c2n1 (stereo unspecified),·,0.46
